# Screening data (PubChem BioAssay)
# STK33 kinase inh: inhibitors of human STK33 kinase. inhibition, % at 10 µM. 0.073% of 320,000 active. AID 2661. purified STK33, MBP phosphorylation, ADP-Glo luminescence;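 active = inhibition at or above 25%, using the most active replicate where run in duplicate; inactive = inhibition below 25%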
# Target sequence (Q9BYT3 whole entry, looked up): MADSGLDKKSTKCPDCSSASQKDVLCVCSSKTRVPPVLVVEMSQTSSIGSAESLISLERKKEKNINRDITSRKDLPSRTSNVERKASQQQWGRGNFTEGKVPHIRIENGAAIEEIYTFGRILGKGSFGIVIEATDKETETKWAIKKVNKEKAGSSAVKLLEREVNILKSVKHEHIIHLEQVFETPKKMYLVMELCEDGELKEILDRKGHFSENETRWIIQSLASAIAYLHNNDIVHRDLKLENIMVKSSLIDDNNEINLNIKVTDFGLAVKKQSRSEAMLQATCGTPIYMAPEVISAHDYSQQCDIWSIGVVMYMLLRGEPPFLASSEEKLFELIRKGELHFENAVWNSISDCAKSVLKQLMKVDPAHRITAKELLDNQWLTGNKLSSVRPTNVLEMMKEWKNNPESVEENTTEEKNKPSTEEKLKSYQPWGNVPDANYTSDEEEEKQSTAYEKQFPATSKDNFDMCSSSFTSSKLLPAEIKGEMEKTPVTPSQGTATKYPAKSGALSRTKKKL
# * = called active by the depositor.
cpd	Structure	STK33 kinase inh
1	O=C(COC(=O)/C=C/c1ccc(OC(F)F)cc1)Nc1ccc2[nH]c(=O)[nH]c2c1	-0.7
2	O=C(CSc1nc2[nH]c(=O)cc(O)c2s1)Nc1nccs1	-0.1
3	COCCCN(C(=O)c1ccccc1F)c1nc(-c2ccc(OC)cc2)cs1	-0.7
4	COc1cc(C(=O)Nc2cc(OC)c(OC)c(OC)c2)ccc1OCc1c(C)noc1C	-0.8
5	Cc1nnc(NC(=O)CSc2nnnn2Cc2ccccc2)s1	-1.4
6	O=C(Nc1cccc(C(=O)O)c1)/C(=C\c1ccccc1)NC(=O)c1ccccc1Cl	-1.6
7	C[C@@H]1CC[C@]2(C(=O)O[C@@H]3O[C@H](CO)[C@@H](O)[C@H](O)[C@H]3O)CC[C@]3(C)C(=CCC4[C@@]5(C)C[C@@H](O)[C@H](O)[C@@](C)(C(=O)O[C@@H]6[C@H](O)C[C@@]7(C)C(CC[C@]8(C)C7CC=C7[C@H]9[C@](C(=O)O[C@@H]%10O[C@H](CO)[C@@H](O)[C@H](O)[C@H]%10O)(CC[C@@H](C)[C@@]9(C)O)CC[C@]78C)[C@@]6(CO)C(=O)O)C5CC[C@]43C)[C@@H]2[C@]1(C)O (stereo not given in full)	1.4
8	CC[C@@]1(c2ccccc2OC)C(=O)N(C(=O)OC)N1C(=O)OC	0.5
9	COc1cccc(/C=C2\Oc3cc(OCC(=O)N4CCC[C@H]4C(=O)O)ccc3C2=O)c1	3.0
10	CCOC(=O)C(Cc1ccccc1)NC(=O)Cn1nnc(-c2ccc(SC)cc2)n1 (stereo not given)	-3.0
11	CC(C)CC1NC(=O)N(Cc2nc3ccccc3s2)C1=O (stereo not given)	-0.9
12	Cn1ccc(C(=O)Nc2sc3c(c2C#N)CCC3)n1	1.8
13	Cc1cccc(CS(=O)(=O)c2ncc(Cl)c(C(=O)NCc3ccccc3)n2)c1	-2.6
14	COc1ccc(C2C(C#N)=C(N)Oc3cc(C)n(Cc4ccncc4)c(=O)c32)cc1 (stereo not given)	-0.3
15	O=C1c2ccccc2C(=O)N1CCc1csc(-c2ccc(F)cc2)n1	-0.7
16	CCNC(=S)Nc1cc(Cl)ccc1Oc1ccccc1	0.3
17	N#Cc1nc(COc2ccccc2)oc1N1CCOCC1	-2.0
18	Cc1nnc(SCC(=O)Nc2ccc3c(c2)OCO3)o1	1.5
19	Cn1c(SCC(=O)c2ccc(O)cc2O)nnc1-c1ccccc1	-1.2
20	COc1ccc2c(c1OC)C(=O)OC2CC(=O)c1ccc(O)c(O)c1 (stereo not given)	-0.1
21	CC(C)NC(=O)NC(=O)COc1c(F)c(F)cc(F)c1F	-1.2
22	CCOc1ccccc1OCCCC(=O)N(CC)CC(=O)Nc1c(F)cccc1F	-0.3
23	O=C(Nc1ccon1)Nc1ccc(Cl)cc1Cl	-0.8
24	Cc1cccc(NS(=O)(=O)c2ccc(OCC(=O)N3CCCC3)cc2)c1	-1.0
25	Cc1c(S(=O)(=O)NC2CCCCCC2)c(=O)n(C)c(=O)n1C	-0.8
26	CCOCCCNC(=O)CCc1nnc2n(CCC(C)C)c(=O)c3ccccc3n12	-2.0
27	CCN(CC)c1nc2ccccc2nc1C(C#N)C(=O)NCCc1ccccc1 (stereo not given)	0.3
28	CC1CN(c2nnc(NC(=O)c3ccccc3)s2)CC(C)O1 (stereo not given)	-0.1
29	Cc1cc(C(=O)N2CCN(Cc3ccccc3)CC2)on1	-0.2
30	CC(Sc1ccccc1)C(=O)NN=C1CCCCCC1 (stereo not given)	-1.5
31	CC(=NNC(=O)c1cccc(S(=O)(=O)N2CCOCC2)c1)c1ccc(Cl)cc1	-0.2
32	CCCc1nc2nc(C)c(NS(=O)(=O)c3ccc(F)cc3)c(=O)n2[nH]1	0.0
33	Cn1c(=O)n(Cc2ccccc2)c(=O)c2c1nc1n2CCN1Cc1ccco1	-0.7
34	O=S(=O)(Nc1ncccn1)c1ccc(NC(=S)NCCc2ccc(Cl)cc2)cc1	0.8
35	COc1cc(NC(=O)c2ccc(-c3cccc([N+](=O)[O-])c3)o2)ccc1NC(=O)C(C)C	-0.9
36	O=S(=O)(Cc1ccccc1)N1CCN(c2ccccc2)CC1	6.2
37	CC1CCCN(c2ccc(F)cc2N)C1 (stereo not given)	0.5
38	C/C(=N\NC(=O)C(NC(=O)c1ccccc1)C(C)C)c1ccccc1 (stereo not given)	0.8
39	C(=N\N1CCN(Cc2ccccc2)CC1)/c1cccnc1	0.0
40	Cc1ccc(S(=O)(=O)N2CCN(C(C)C(=O)N3CCCc4ccccc43)CC2)cc1 (stereo not given)	-0.9
41	Nc1ccc(CCc2nc3ccccc3o2)cc1	-1.1
42	Cc1nn(Cc2ccc(Cl)c(Cl)c2)c(C)c1NC(=O)c1cc(-c2ccco2)on1	0.5
43	CCN(c1ccccc1C)S(=O)(=O)c1nnc(NC(=O)c2ccco2)s1	-2.6
44	COC(=O)CSc1nnc([C@H](Cc2ccccc2)NC(=O)OC(C)(C)C)o1	-2.0
45	CCCC(=O)C1=C(O)C(C(=O)OC)C(C)(C)CC1=Nc1cccc([N+](=O)[O-])c1 (stereo not given)	-0.4
46	Cc1nc(SCC(=O)NCC(F)(F)F)c2c(-c3cccs3)csc2n1	0.3
47	COc1ccc(-c2cc(C(F)F)n3ncc(C(=O)N4CCSCC4)c3n2)cc1	2.0
48	CCCNC(=O)CN(C)C(=O)c1n[nH]c2ccccc12	-1.5
49	CCCn1nc(C(=O)NCc2ccc3c(c2)OCO3)c2ccccc2c1=O	-1.4
50	CC(=O)Nc1cccc(NC(=O)CSc2ccc(C(F)(F)F)cc2[N+](=O)[O-])c1	-1.8
51	COc1cccc(OC)c1C(=O)Nc1ccc(S(=O)(=O)N2CCCCC2)cc1	0.7
52	CCn1cc([N+](=O)[O-])c(C(=O)N2CCOCC2)n1	-2.0
53	Cc1cc(=O)oc2cc(OCC(=O)OCc3nnc(-c4ccccc4)o3)ccc12	1.1
54	O=C(Cn1cncn1)N/N=C/c1c2ccccc2cc2ccccc12	0.1
55	O=C(NC1CCS(=O)(=O)C1)C1C2CC3CC(C2)CC1C3 (stereo not given)	-0.7
56	COc1ccccc1NC(=O)c1ccc(C)c(S(=O)(=O)N2CCCCC2)c1	-0.8
57	O=C(CN1C(=O)c2ccccc2S1(=O)=O)N1CCc2ccccc21	-1.4
58	O=C(Nc1ccccn1)NC1CCS(=O)(=O)C1 (stereo not given)	0.7
59	CCC(=O)Nc1ccc(S(=O)(=O)N2CCOCC2)cc1	0.1
60	Cc1ccc(CCNC(=O)C2CCC(=O)N2C(C)C)cc1 (stereo not given)	-7.5

# Part of the list above in order of molecular weight, low to high.
cpd	Structure	STK33 kinase inh
57	O=C(CN1C(=O)c2ccccc2S1(=O)=O)N1CCc2ccccc21	-1.4
49	CCCn1nc(C(=O)NCc2ccc3c(c2)OCO3)c2ccccc2c1=O	-1.4
56	COc1ccccc1NC(=O)c1ccc(C)c(S(=O)(=O)N2CCCCC2)c1	-0.8
51	COc1cccc(OC)c1C(=O)Nc1ccc(S(=O)(=O)N2CCCCC2)cc1	0.7

# More entries follow:
cpd	Structure	STK33 kinase inh
61	COc1ccccc1NS(=O)(=O)c1cccc(C(=O)N/N=C/c2ccc(C)o2)c1	0.8
62	O=C1Nc2ccccc2N(O)N1c1ccc(Cl)c(Cl)c1	1.0
63	Cc1nc(/C=C\C(=O)O)c2cc(C)oc2n1	4.3
64	COCc1cc(C)nc(SCc2ccc(F)cc2)c1C#N	0.2
65	CCCCN1C(=O)CC(Nc2ccc(CC)cc2)C1=O (stereo not given)	1.3
66	CCOC(=O)c1sc(-c2ccc(F)cc2)cc1N	-0.5
67	CCOC(=O)CC1(NC(=O)c2cc(COc3cccc(OC)c3)on2)CCCCC1	0.6
68	COc1cccc(CC(NC(C)=O)C(=O)NC2CCN(c3nc(C)cc(C)c3C#N)CC2)c1 (stereo not given)	-1.4
69	Cc1ccc(S(=O)(=O)c2nc(S(=O)(=O)c3ccc(C)cc3)c(N3CCN(CCO)CC3)s2)cc1	0.6
70	CCN(CC)CCCNC(=O)c1cn(CC(C)C)c(=O)c2c1c1ccccc1n2C	0.7
71	COc1ccc(N(Cc2ccccc2)S(=O)(=O)c2cccc(C(=O)NC3=NCCS3)c2)cc1	-1.3
72	O=C(CCCNC(=O)c1ccc(Cl)cc1)Nc1ccc(S(=O)(=O)Nc2ncccn2)cc1	-1.5
73	CC(C)CNC(=O)c1oc2ccccc2c1COc1ccccc1	0.6
74	COc1ccccc1NC(=O)CCn1c(=O)sc2ccccc21	-0.5
75	Cc1nnc(-c2cnn(-c3ccccc3)c2N)n1Cc1ccc(F)cc1	-1.3
76	CCc1cccc(NC(=O)Cn2c(=O)c3cccn3c3ccccc32)c1	-0.6
77	CC(C)CC(c1nnnn1C1CCCC1)N1CCC(C(N)=O)CC1 (stereo not given)	-0.1
78	CC(=O)Nc1ccc2c(c1)OCCOCCOc1cc(NC(C)=O)ccc1OCCO2	-1.7
79	COc1ccc(Cl)cc1NC(=O)N(C)Cc1c(C)nn(C)c1C	0.0
80	CCOC(=O)C1C(c2ccccc2)C(C(=O)OCC)C1c1ccccc1 (stereo not given)	-0.4
81	COc1cc(-c2csc(C)n2)ccc1O	-2.6
82	COc1ccc(CCNC(=O)CCCCCNc2nc(=S)[nH]c3ccccc23)cc1OC	0.4
83	Cc1nc2scc(C)n2c(=O)c1S(=O)(=O)N1CCN(c2ccccc2)CC1	-0.3
84	COc1ccc(NC(=S)N2CCN(S(C)(=O)=O)CC2)cc1OC	4.1
85	Cc1ccc(NC(=O)c2ccc3nc[nH]c3c2)cc1C	4.7
86	CCCCn1c(C)csc1=Nc1cccnc1	-3.3
87	O=C1c2ccsc2SCCN1Cc1c(Cl)cccc1Cl	-0.6
88	CNC(=O)NCC12CC3CC(CC(C3)C1)C2	-0.3
89	NS(=O)(=O)c1cccc(NC(=O)c2ccccc2NS(=O)(=O)c2ccc(F)cc2)c1	-1.3
90	Cc1cccc(C)c1OCc1cc(C(=O)N2CCC(c3ccccc3)CC2)no1	-1.5
91	COc1ccc(-c2cc(=O)oc3c(C)c(OC(=O)c4cccs4)ccc23)cc1	-1.2
92	O=C(NCC1CCCO1)c1cc2ccccc2oc1=O (stereo not given)	-1.2
93	Cn1c(-c2ccc(F)cc2)cnc1NCc1cccc(F)c1	-1.3
94	NNC(=O)C1CC(O)CN1S(=O)(=O)c1ccc(Cl)cc1 (stereo not given)	2.9
95	NS(=O)(=O)c1ccc(NC(=O)COC(=O)C2(c3ccc(F)cc3)CCCC2)cc1	-0.5
96	COc1ccc(C2C3=C(CC(C)(C)CC3=O)Nc3c2c(=O)[nH]c2nc(C)nn32)cc1 (stereo not given)	-1.8

# Filtered by structure, the entries above containing a Cl atom (12)
cpd	Structure	STK33 kinase inh
6	O=C(Nc1cccc(C(=O)O)c1)/C(=C\c1ccccc1)NC(=O)c1ccccc1Cl	-1.6
13	Cc1cccc(CS(=O)(=O)c2ncc(Cl)c(C(=O)NCc3ccccc3)n2)c1	-2.6
16	CCNC(=S)Nc1cc(Cl)ccc1Oc1ccccc1	0.3
23	O=C(Nc1ccon1)Nc1ccc(Cl)cc1Cl	-0.8
31	CC(=NNC(=O)c1cccc(S(=O)(=O)N2CCOCC2)c1)c1ccc(Cl)cc1	-0.2
34	O=S(=O)(Nc1ncccn1)c1ccc(NC(=S)NCCc2ccc(Cl)cc2)cc1	0.8
42	Cc1nn(Cc2ccc(Cl)c(Cl)c2)c(C)c1NC(=O)c1cc(-c2ccco2)on1	0.5
62	O=C1Nc2ccccc2N(O)N1c1ccc(Cl)c(Cl)c1	1.0
72	O=C(CCCNC(=O)c1ccc(Cl)cc1)Nc1ccc(S(=O)(=O)Nc2ncccn2)cc1	-1.5
79	COc1ccc(Cl)cc1NC(=O)N(C)Cc1c(C)nn(C)c1C	0.0
87	O=C1c2ccsc2SCCN1Cc1c(Cl)cccc1Cl	-0.6
94	NNC(=O)C1CC(O)CN1S(=O)(=O)c1ccc(Cl)cc1 (stereo not given)	2.9

# Further compounds
cpd	Structure	STK33 kinase inh
97	CCOC(=O)C(NCCCCl)c1ccccc1 (stereo not given)	-1.6
98	Cc1cccc(OCC(=O)Nc2ccccc2F)c1	-0.8
99	N#Cc1c(N)c(C(=O)c2ccccc2)n2ccccc12	2.4
100	Cc1ccc(SC[C@H](Cc2ccccc2)N2CCN(CCc3ccccc3)CCC2=O)cc1	-1.2
101	CC(=O)Nc1cccc(NC(=O)CSc2nc(=O)n(CCCN3CCOCC3)c3c2CCC3)c1	0.0
102	c1ccc(CCNc2nc3ccccc3n3nnnc23)cc1	-1.3
103	CC(C)(C)c1ccc(C(=O)Cn2nc(C(=O)O)c3ccccc3c2=O)cc1	-0.7

# A portion of the library, and most or all hits are left out here.
